Source: PubChem (Broad Institute)
FGF22 binding = binders of human FGF22 protein, primary screen, FGF22 synaptogenesis inhibitor project, biophysical, thermal shift, single point | calls only at 9.99 µM | recombinant FGF22 thermal shift, SYPRO orange fluorescence; percent of sucrose octasulfate shift, DMSO zero | Fibroblast growth factor 22 (Homo sapiens), Q9HCT0 | 340,000 compounds, 1.5% hits | AID 651658, 2012;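 active means melting point raised past a set limit in the mean and every replicate; three in four hits are not shown here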
Target sequence (Q9HCT0 whole entry, looked up): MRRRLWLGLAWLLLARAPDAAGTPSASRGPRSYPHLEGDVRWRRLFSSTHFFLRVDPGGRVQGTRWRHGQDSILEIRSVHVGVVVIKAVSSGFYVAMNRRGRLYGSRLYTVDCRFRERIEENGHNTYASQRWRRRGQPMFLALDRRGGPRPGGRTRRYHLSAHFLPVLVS
AF4-AF9 inh = inhibitors of AF4 peptide binding to AF9, primary screen, biochemical, AlphaScreen, biotin-AF4 peptide, FLAG-AF9, single point; inhibition, % at 10 µM; Protein AF-9 (Homo sapiens), P42568; 350,000 compounds, 0.47% hits; AID 651704, 2012;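 active means every replicate reaching a set inhibition limit, whatever the replicate mean, cut at about 25% in these data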;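 further: 0% = plate neutral control median and 100% = total signal loss; the record names both 10 and 1 µM as test concentration; the first replicate is given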
Target sequence (P42568 whole entry, looked up): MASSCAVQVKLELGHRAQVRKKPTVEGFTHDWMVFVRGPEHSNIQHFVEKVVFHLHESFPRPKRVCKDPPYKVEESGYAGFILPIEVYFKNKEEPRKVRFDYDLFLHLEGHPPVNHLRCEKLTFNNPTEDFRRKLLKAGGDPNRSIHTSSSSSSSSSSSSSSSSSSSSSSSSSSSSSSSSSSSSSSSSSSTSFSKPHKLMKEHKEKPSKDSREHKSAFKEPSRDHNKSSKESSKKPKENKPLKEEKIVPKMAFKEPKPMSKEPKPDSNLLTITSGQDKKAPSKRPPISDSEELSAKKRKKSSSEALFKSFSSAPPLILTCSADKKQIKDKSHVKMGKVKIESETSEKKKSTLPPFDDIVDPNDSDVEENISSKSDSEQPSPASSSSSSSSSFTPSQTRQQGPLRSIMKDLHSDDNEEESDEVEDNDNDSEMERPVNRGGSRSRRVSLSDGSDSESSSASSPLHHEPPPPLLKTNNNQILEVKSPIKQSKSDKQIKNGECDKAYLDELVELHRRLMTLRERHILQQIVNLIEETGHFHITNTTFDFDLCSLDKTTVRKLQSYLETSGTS
* = called active by the depositor; i = inactive; + = active, no number. An excerpt. The share of hits here may be higher or lower than overall.

Structure	FGF22 binding	AF4-AF9 inh
CN(C)CC#Cc1ccc([C@H]2[C@@H](CO)N3CCCCN(C(=O)C4CCCC4)C[C@@H]23)cc1	i	-3.3
COC(=O)C(CC#Cc1ccc2c(c1)[C@]1(C(=O)N2)[C@H](C(=O)N2CCc3cc(OC)c(OC)cc3C2)[C@H]2C(=O)O[C@H](c3ccccc3)[C@H](c3ccccc3)N2[C@@H]1c1ccc(OCCO)cc1)C(=O)OC	i	-1.6
COc1ccc(-c2cc3c(c(-c4ccc(Oc5ccccc5)cc4)n2)[Si](C(C)C)(C(C)C)OC3)cn1	i	-17
O=C(Nc1ccc(F)cc1)N1CCCCN2[C@@H](CO)[C@H](c3ccc(-c4ccccc4F)cc3)[C@@H]2C1	i	3.9
O=C1C[C@@](C(=O)NCCN2CCOCC2)(c2ccc([N+](=O)[O-])cc2)[C@@H](c2ccc(CO)cc2)N1CC12CC3CC(CC(C3)C1)C2	i	12
COc1ccc(NC(=O)N2CCCCN3[C@H](CO)[C@@H](c4ccc(C#Cc5ccccc5)cc4)[C@H]3C2)cc1	i	3.3
CCOc1cccc(C=NNc2nc(=O)cc(C(=O)OC)s2)c1O	i	-1.7
CC(=O)n1cc([C@H]2C=C(C(=O)N3CCCCCCC3)O[C@@H](OCc3ccc(CO)cc3)C2)c2ccccc21	i	1.9
C=C[C@H](COC(C)=O)N(C(=O)OC(C)(C)C)S(=O)(=O)c1ccc(Br)cc1	i	-6.1
COc1cccc(-c2ccc([C@H]3[C@@H](CO)N4CCCCN(CC5CCOCC5)C[C@@H]34)cc2)c1	i	2.4
C=C[C@@H](COC(C)=O)N(C(=O)OC(C)(C)C)S(=O)(=O)c1ccc(Br)cc1	i	-3.3
COC(=O)[C@@]1(CCS(=O)(=O)c2ccccc2)COC(c2ccc(OCCCO)cc2)=N1	i	-28
COC(=O)C1=C/c2ccccc2C(C2CC2)N(Cc2ccc(OC)cc2)/C=C\1C(=O)OC (stereo unspecified)	i	11
COc1ccc([Si](C)(C)[C@@H]2[C@@H](CCO)O[C@]3(C(=O)N(Cc4ccc(NC(C)=O)cc4)c4ccccc43)[C@H]2C)cc1	i	2.9
C=C[C@H](COC(C)=O)N(Cc1ccc(OC(C)=O)c(OC)c1)S(=O)(=O)c1ccc(Br)cc1	i	-1.4
COc1ccc(C#Cc2cnc3c(c2)C(=O)N([C@H](C)CO)C[C@@H](C)[C@@H](CN(C)CC2CCCC2)O3)cc1	i	5.9
CC(=O)Nc1ccccc1-c1cn(CC(=O)N2CCOCC2)nn1	i	-4.1
COc1ccc([Si](C)(C)[C@@H]2[C@@H](CCO)O[C@]3(C(=O)N(Cc4cccc(N5CCOC5=O)c4)c4ccccc43)[C@H]2C)cc1	i	-3.8
CNC[C@H]1Oc2ccc(N)cc2C(=O)N([C@H](C)CO)C[C@@H]1C	i	-6.4
O=C(Nc1cc(Br)ccc1C(=O)NCc1cccc(O)c1)c1ccccc1	i	-14
C[C@@H]1CN([C@@H](C)CO)C(=O)c2cc(-c3cccc(C(=O)N(C)C)c3)cnc2O[C@@H]1CN(C)C(=O)Cc1ccccn1	i	-0.1
CC(C)(C)[C@H]1C=C(C(=O)N2CCCC2)O[C@@H](OCc2ccc(CO)cc2)C1	i	-2.3
C=CCSC1=N[C@@]2(COCc3ccc(OC)cc3)Oc3ccccc3[C@H]([C@H]2CO[Si](C)(C)C(C)(C)C)N1C(=O)c1ccccc1	i	-1.1
C=CCNC(=O)[C@@H]1[C@H]2C(=O)O[C@H](c3ccccc3)[C@H](c3ccccc3)N2[C@H](c2ccc(OCCO)cc2)[C@@]12C(=O)Nc1ccc(C#CCCO)cc12	i	1.8
O=C1O[C@@H](c2ccccc2)[C@@H](c2ccccc2)N2[C@@H](c3ccccc3OCCO)[C@]3(C(=O)Nc4ccc(C#CCCO)cc43)[C@@H](C(=O)O)[C@H]12	+	3.9
CN(C)C(=O)c1ccc(-c2ccc([C@@H]3[C@H]4CN(C(=O)C5CCCC5)CCCCN4[C@H]3CO)cc2)cc1	i	-5.7
O=C(NCCN1CCOCC1)[C@]1(Cc2ccccc2)N=C(c2ccc(OCCCO)cc2)O[C@@H]1c1ccccc1	i	9.4
O=S(=O)(c1ccc(F)cc1)N1CCCCN2[C@H](CO)[C@H](c3ccc(C#CC4CCCC4)cc3)[C@@H]2C1	i	-3.7
C[C@@H]1CN([C@@H](C)CO)C(=O)Cc2cc(N(C)C)ccc2O[C@H]1CN(C)CC1CCCCC1	i	13
COc1ccc(C2=NOC(C(=O)NO)C2)cc1OC1CCCC1 (stereo unspecified)	i	1.8
O=C(C[C@H]1C=C[C@@H](NC(=O)Nc2cc(F)ccc2F)[C@H](CO)O1)Nc1ccccc1	i	0.9
COCCOC(=O)N1C(=O)[C@@]2(c3cc(C#CCNC(N)=O)ccc31)[C@H](C(=O)N1CCc3cc(OC)c(OC)cc3C1)[C@H]1C(=O)O[C@H](c3ccccc3)[C@H](c3ccccc3)N1[C@@H]2c1ccccc1OCCO	i	-2.6
CNC[C@H]1Oc2ncc(-c3ccccc3C)cc2C(=O)N([C@@H](C)CO)C[C@@H]1C	i	5.6
OC[C@H]1[C@@H](c2ccc(-c3cccnc3)cc2)[C@H]2CN(CC3CCOCC3)CCCCN21	i	-1.8
C[C@@H]1CCCCO[C@H](CN(C)C(=O)c2ccncc2)[C@H](C)CN([C@@H](C)CO)C(=O)c2cc(N(C)C)ccc2O1	i	-0.2
Cc1ccc(F)cc1S(=O)(=O)N[C@@H]1CCN(Cc2ccc3[nH]ccc3c2)C1	i	10
C=CC[C@]1(C(=O)N(C)C)N=C(c2ccc(OCCCO)cc2)O[C@H]1c1ccccc1	i	-5.2
CCCN(C)C[C@H]1Oc2cc(C#CCC3CCCC3)ccc2S(=O)(=O)N([C@H](C)CO)C[C@@H]1C	i	1.7
COc1cc2c(cc1OC)CN(C(=O)[C@@H]1[C@H]3C(=O)O[C@H](c4ccccc4)[C@H](c4ccccc4)N3[C@H](c3ccc(O)cc3)[C@@]13C(=O)Nc1ccc(C#CCCO)cc13)CC2	i	-1.8
COCCCNC(=O)[C@@]1(Cc2ccccc2)N=C(c2ccc(OCCCO)cc2)O[C@H]1c1ccccc1	i	3.0
COc1cc(COC(C)=O)ccc1OC(C)=O	i	-11
O=C(c1ccc(F)cc1)N1CCCCN2[C@H](C1)[C@H](c1ccc(-c3ccc(F)cc3)cc1)[C@@H]2CO	i	-3.6
CO[C@@H]1CN(C)C(=O)c2ccc(NC(=O)c3ccccn3)cc2OC[C@@H](C)N(C(=O)C2CCC2)C[C@H]1C	i	-4.6
COc1ccc2c3c(n(C)c2c1)[C@@H](CO)N(CC1CC1)CC31CCN(Cc2ccc(F)cc2)CC1	i	21
O=C1O[C@@H](c2ccccc2)[C@@H](c2ccccc2)N2[C@@H](c3ccc(O)cc3)[C@]3(C(=O)Nc4ccc(C#CC5=CCCCC5)cc43)[C@@H](C(=O)O)[C@H]12	i	5.9
O=Cc1ccc(NC(=O)CCCCCCC(=O)NOCc2ccccc2)cc1	i	-1.9
C[C@H]1C=C(C(=O)N2CCN(Cc3ccc4c(c3)OCO4)CC2)O[C@@H](OCCCCO)C1	i	-5.3
O=C1N(CCS(=O)(=O)c2ccccc2)Cc2ccccc2C[C@]12N=C(c1ccc(OCCCO)cc1)O[C@@H]2c1ccccc1	i	3.0
COC(=O)[C@@]1(CCS(=O)(=O)c2ccccc2)N=C(c2ccc(OCCCO)cc2)O[C@H]1c1ccccc1N=[N+]=[N-]	i	7.7
COc1cc2c(cc1OC)CN(C(=O)[C@H]1[C@@H]3C(=O)O[C@@H](c4ccccc4)[C@@H](c4ccccc4)N3[C@@H](c3ccc(O)cc3)[C@]13C(=O)Nc1ccccc13)CC2	i	-2.0

2 entries from above in another layout.
Screens in order: FGF22 binding | AF4-AF9 inh
COc1ccc2c3c(n(C)c2c1)[C@@H](CO)N(CC1CC1)CC31CCN(Cc2ccc(F)cc2)CC1
 : i | 21
O=C1O[C@@H](c2ccccc2)[C@@H](c2ccccc2)N2[C@@H](c3ccc(O)cc3)[C@]3(C(=O)Nc4ccc(C#CC5=CCCCC5)cc43)[C@@H](C(=O)O)[C@H]12
 : i | 5.9

Record cards, from the list above:
Shown for OC[C@H]1[C@@H](c2ccc(-c3cccnc3)cc2)[C@H]2CN(CC3CCOCC3)CCCCN21 : FGF22 binding = i; AF4-AF9 inh = -1.8
Shown for Cc1ccc(F)cc1S(=O)(=O)N[C@@H]1CCN(Cc2ccc3[nH]ccc3c2)C1 : FGF22 binding = i; AF4-AF9 inh = 10
Shown for O=C(c1ccc(F)cc1)N1CCCCN2[C@H](C1)[C@H](c1ccc(-c3ccc(F)cc3)cc1)[C@@H]2CO : FGF22 binding = i; AF4-AF9 inh = -3.6

Next part.
Structure	FGF22 binding	AF4-AF9 inh
COC(=O)C(CC#Cc1ccc2c(c1)[C@]1(C(=O)N2)[C@H](c2ccc(OCCO)cc2)N2[C@H](c3ccccc3)[C@H](c3ccccc3)OC(=O)[C@H]2[C@@H]1C(=O)N1CCN(c2ncccn2)CC1)C(=O)OC	i	-13
O=C(C[C@H]1C=C[C@@H](NC(=O)NC2CCCCC2)[C@H](CO)O1)NCc1ccc(Cl)cc1	i	-0.1
C=CC[C@]1(C(=O)OC)COC(c2ccc(OCCCO)cc2)=N1	i	-2.0
O=C(C1CCCC1)N1CCCCN2[C@@H](CO)[C@@H](c3ccc(C#CC4(O)CCCC4)cc3)[C@@H]2C1	i	0.4
COc1ccc(C#Cc2ccc3c(c2)[C@]2(C(=O)N3)[C@H](C(=O)N3CCCCCCC3)[C@H]3C(=O)O[C@H](c4ccccc4)[C@H](c4ccccc4)N3[C@@H]2c2ccc(O)cc2)cc1	i	-0.1
CN(C)C(=O)c1ccc(-c2ccc([C@@H]3[C@@H](CO)N4CCCCN(C(=O)C5CCC5)C[C@@H]34)cc2)cc1	i	-4.0
O=S(=O)(c1cccc(F)c1)N1CCN(Cc2ccc(OCCO)cc2)CC1	i	-0.6
COC(=O)c1c2oc(c1C(=O)OC)C(=O)N(C)Cc1cn(nn1)C[C@H](Cc1ccccc1)NC(=O)N[C@H](CO)CC2	i	-8.2
O=C(C1CC1)N1CCCCN2[C@H](CO)[C@@H](c3ccc(C#CC4CC4)cc3)[C@@H]2C1	i	-4.3
COC(=O)c1c(CC[C@@H](CO)NC(=O)N[C@H](Cc2ccccc2)Cn2cc(-c3ccccn3)nn2)oc(C(C)=O)c1C(=O)OC	i	-1.2
COc1ccc(S(=O)(=O)N2CCCCN3[C@H](CO)[C@H](c4ccc(C5=CCCCC5)cc4)[C@@H]3C2)cc1	i	-4.3
COc1cccc(/C=C/C=O)c1	i	-6.8
C#Cc1ccc([C@H]2C=C(C(=O)NC3CC3)O[C@@H](OCc3ccc(CO)cc3)C2)cc1	i	-3.5
O=C(C1CC1)N1CCCCN2[C@H](CO)[C@H](c3ccc(C#CC4CC4)cc3)[C@@H]2C1	i	-2.6
CN(C)C(=O)[C@@]1(Cc2ccccc2N=[N+]=[N-])N=C(c2ccc(OCCCO)cc2)O[C@H]1c1ccccc1N=[N+]=[N-]	i	8.2
O=C(C1CCCC1)N1CCCCN2[C@@H](CO)[C@H](c3ccc(-c4cccc(F)c4)cc3)[C@@H]2C1	i	7.9
C[C@H](CO)N1C[C@H](C)[C@@H](CN(C)S(C)(=O)=O)Oc2ccc(NC(=O)Nc3cccc4ccccc34)cc2CC1=O	i	8.9
C[C@H]1CN([C@@H](C)CO)C(=O)c2cc(Br)cnc2O[C@H]1CN(C)Cc1ccccn1	i	-4.9
O=[N+]([O-])c1ccccc1S(=O)(=O)N1CCN(Cc2ccc(OCCO)cc2)CC1	i	5.2
CN1C(=O)CS(=O)(=O)C1c1ccccc1 (stereo unspecified)	i	-1.3
COc1cccc(-c2ccc(CC[C@H]3O[C@H]4CC[C@@H](CO)O[C@H]4C[C@@H]3NS(C)(=O)=O)cc2)c1	i	-3.3
C[C@H]1ON(c2ccc(C(=O)OC(C)(C)C)cc2)[C@@H](c2ccc(O)cc2)[C@@H]1C(=O)N1C(=O)OC[C@@H]1c1ccccc1	i	2.4
O=S(=O)(c1cccs1)N1CCCCN2[C@H](C1)[C@H](c1ccc(C3=CCCCC3)cc1)[C@@H]2CO	i	-3.1
C[C@]12CCC3C4(C=CC5(C=C4C(=O)C4CCCCC4)C[C@@H](O)CC[C@]35C)C1CC[C@@]2(O)CN1CCC(n2c(=O)[nH]c3ccccc32)CC1 (stereo partly specified)	i	5.7
C[C@@H]1CN([C@@H](C)CO)C(=O)c2cccc(NC(=O)Nc3cccc4ccccc34)c2O[C@H]1CN(C)S(=O)(=O)c1cccs1	i	1.2
O=S(=O)(c1ccc2ccccc2c1)N1CCN(Cc2cccc(OCCO)c2)CC1	i	3.0
